Screens: PubChem BioAssay, Broad Institute
A1 inhib: blocks A1 activity. MEF A1-2A-BIM cells, caspase-Glo luminescence, 3 h; percent of clofoctol signal, DMSO as zero. caspase activation, % (concentration not given with the values). hit rate 0.51% among 21,000. AID 2241;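 active = most replicate scores above 10, or exactly half above 10 with mean activity above 10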;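 also: effector caspase 3 and 7 activity cleaving a DEVD luciferin substrate; 50 nL library stock added to about 30 µL; numbers are from one replicate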
BJeLR viability: lowers viability of BJeLR cells | BJeLR fibroblasts viability, CellTiterGlo ATP luminescence, 48 h; HRASV12, hTERT and SV40 LT/ST transformed | hit rate 0.64% among 30,000 | viability loss activity score, % (test concentration not listed); in the data active = viability loss activity score above about 50%; about a fifth of its hits are not listed in these tables;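 also: higher score means fewer live cells and less ATP luminescence; stock transfer was 50 or 100 nL into about 30 µL; 0% = vehicle wells and 100% = a reference killing control; one replicate is shown; the record names a cut of 85%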
Numbers without * were called inactive; x = not tested or not shown. The list is partial; rates above refer to the full screens.

SMILES | A1 inhib | BJeLR viability
C[C@H]1CN([C@@H](C)CO)C(=O)c2cccc(NC(=O)Nc3ccc(F)cc3)c2O[C@@H]1CN(C)C(=O)Nc1ccccc1 | x | 1.7
CCOC(=O)C1C(=O)C=C(c2cccs2)CC1c1ccc(C)cc1 (stereo unspecified) | -1.2 | 5.6
Fc1ccccc1Nc1nc(NCc2ccccc2)c2ccccc2n1 | x | -6.4
Cc1noc(C)c1S(=O)(=O)Nc1ccc2c(c1)C(=O)N([C@H](C)CO)C[C@H](C)[C@@H](CN(C)Cc1ccc(C(=O)Nc3ccccc3N)cc1)O2 | x | 3.3
Cc1ccc(NC(=O)C2C3C=CC(C3)C2C(=O)O)cc1 (stereo unspecified) | 0.4 | 0.3
CC(NC(=O)CSc1nn(-c2ccccc2)c(=S)s1)c1ccccc1 (stereo unspecified) | 0.1 | -1.9
C[C@@H]1CN([C@H](C)CO)C(=O)c2cc(NS(=O)(=O)c3ccc(Cl)cc3)ccc2O[C@@H]1CN(C)C(=O)Nc1ccc(F)cc1 | 0.4 | -4.6
CC1(C)C(=O)C2(CCCCC2)C(=O)OC1C(=O)c1ccccc1 (stereo unspecified) | x | -1.2
CC1CCc2c(sc3nc(-c4cc5ccccc5oc4=O)[nH]c(=O)c23)C1 (stereo unspecified) | -0.3 | -2.9
c1ccc2c(CSc3nc4ccccc4s3)cccc2c1 | -0.7 | 4.6
CCC(=O)c1ccc(OC(=O)C2c3ccccc3Oc3ccccc32)cc1 | -0.1 | -1.1
C[C@H](CO)N1C[C@H](C)[C@H](CN(C)S(=O)(=O)c2ccccc2)Oc2c(NC(=O)Nc3ccc(C(F)(F)F)cc3)cccc2C1=O | x | -3.5
COc1ccc(NC(=O)N(C)C[C@H]2Oc3c(cccc3N(C)C)C(=O)N([C@@H](C)CO)C[C@H]2C)cc1 | x | -1.9
CCN(CC)S(=O)(=O)c1ccc(C(=O)Nc2ccc(-n3nncc3-c3ccccc3)cc2)cc1 | x | 20.6
Cc1noc(C)c1NC(=O)N(C)C[C@@H]1Oc2ccc(NC(=O)Cn3cnnn3)cc2C(=O)N([C@@H](C)CO)C[C@H]1C | 0.6 | 1.2
C[C@H]1CN([C@@H](C)CO)C(=O)c2cccc(NC(=O)C3CC3)c2O[C@@H]1CN(C)Cc1ccc(Cl)c(Cl)c1 | x | -9.1
C[C@H]1CN([C@@H](C)CO)C(=O)c2cc(NC(=O)CCCN(C)C)ccc2O[C@H]1CN(C)S(=O)(=O)c1ccc(Cl)cc1 | 1.1 | -1.9
Cc1cc(=O)[nH]c(Nc2ccccc2)n1 | 1.5 | 2.1
C[C@@H]1CN([C@@H](C)CO)C(=O)c2cccc(NC(=O)c3ccc(-c4nccs4)cc3)c2O[C@H]1CN(C)S(=O)(=O)c1ccc(Cl)cc1 | x | 0.1
C[C@@H]1CN([C@H](C)CO)C(=O)c2cc(NC(=O)Nc3ccc(C(F)(F)F)cc3)ccc2O[C@@H]1CN(C)CC1CCCCC1 | -0.6 | 2.7
CC1(C)CC2(CCCN(C(=S)Nc3ccccc3)C2)CCO1 (stereo unspecified) | -0.1 | 1.6
O=C1CN(S(=O)(=O)c2ccc3[nH]c(=O)ccc3c2)CC(=O)N1CCc1ccccc1 | 4.4 | 0.4
C[C@H](CO)N1C[C@H](C)[C@H](CN(C)Cc2ccncc2)Oc2c(NC(=O)Nc3ccccc3)cccc2C1=O | x | 0.4
Cc1ccc(S(=O)(=O)N(C)C[C@H]2Oc3c(NS(=O)(=O)c4ccc(F)cc4)cccc3C(=O)N([C@H](C)CO)C[C@@H]2C)cc1 | x | 0.1
O=C1N=c2ccccc2=C1c1sc(N2CCOCC2)nc1O | -2.9 | 23.9
CC1CCCCN1S(=O)(=O)c1ccc(C(=O)Nc2nc3ccc4ccccc4c3s2)cc1 (stereo unspecified) | -0.6 | 1.7
CC1CCCCN1C(=O)Cc1ccc(Cl)cc1 (stereo unspecified) | -0.3 | -1.2
O=C(CSc1ccccc1)N1c2ccccc2Sc2ccccc21 | 0.0 | 1.4
Cc1ccc(N(C)C(=O)N2CCN(c3ccccn3)CC2)cc1 | -0.1 | -2.7
Cc1ccc(NC(=O)c2oc3ccccc3c2NC(=O)c2ccccc2)cc1 | 0.3 | 2.3
CC(C)CCNC(=O)c1cccc(Cl)c1 | 0.0 | 0.9
c1cc2c(cc1C1CCCCC1)c1c3n2CCN=C3CCC1 | -0.6 | 5.7
C[C@@H]1CN([C@H](C)CO)C(=O)c2cccc(NC(=O)Nc3ccc(F)cc3)c2O[C@H]1CN(C)C(=O)Nc1cccc2ccccc12 | x | -0.1
CC(C)CC(NC(=O)C1CCCCC1)C(=O)N1CCN(c2ccccc2F)CC1 (stereo unspecified) | x | 1.4
CCOc1ncccc1C(=O)Nc1cccc(C(=O)Nc2cccc(S(=O)(=O)CCO)c2)c1 | -0.3 | -6.7
C[C@@H]1CN([C@@H](C)CO)C(=O)c2cc(NC(=O)Cc3cn(C)c4ccccc34)ccc2O[C@@H]1CN(C)C(=O)Nc1cccc2ccccc12 | -0.7 | -3.4
FC(F)(F)C1(C(F)(F)F)N=C(c2ccccc2)OC(N2CCCCC2)=N1 | -0.6 | 1.4
Clc1ccc(Sc2c(-c3ccccc3)nc3ncccn23)cc1 | -0.5 | -3.0
C[C@H](CO)N1C[C@H](C)[C@H](CN(C)S(=O)(=O)c2cn(C)cn2)Oc2ccc(NS(=O)(=O)c3ccc(F)cc3)cc2C1=O | -0.4 | 1.2
NC(=S)NC1CC2C=CC1C2 (stereo unspecified) | 0.3 | 9.1
COc1ccc(NC(=O)N(C)C[C@@H]2Oc3c(NC(=O)c4cnccn4)cccc3C(=O)N([C@@H](C)CO)C[C@H]2C)cc1 | x | -2.5
CC(C)CNC(=O)c1cc(-c2ccc(Cl)cc2)on1 | x | 5.3
CC(C)c1ccc(N(C(=O)c2ccccc2)C2C=CS(=O)(=O)C2)cc1 (stereo unspecified) | -0.6 | -7.2
C[C@@H]1CN([C@H](C)CO)C(=O)c2cc(NC(=O)c3ccncc3)ccc2O[C@H]1CN(C)C(=O)Nc1ccc(F)cc1 | -0.5 | -2.2
C[C@@H]1CN([C@H](C)CO)C(=O)c2cc(NC(=O)Nc3ccc4c(c3)OCO4)ccc2O[C@@H]1CN(C)CC1CCCCC1 | -0.4 | 0.6
FC(F)(F)c1cc(-c2ccc3ccccc3c2)nn1C(=S)N1CCCCCC1 | 0.7 | -2.6
C[C@@H]1CN([C@H](C)CO)C(=O)c2cc(NS(C)(=O)=O)ccc2O[C@@H]1CN(C)CC1CCCCC1 | -0.4 | -0.4
O=C(c1cccs1)N1CCN(c2ncccn2)CC1 | 1.1 | -2.3

Overlap with the part before: three compounds, followed by the next part.
SMILES | A1 inhib | BJeLR viability
FC(F)(F)c1cc(-c2ccc3ccccc3c2)nn1C(=S)N1CCCCCC1 | 0.7 | -2.6
C[C@@H]1CN([C@H](C)CO)C(=O)c2cc(NS(C)(=O)=O)ccc2O[C@@H]1CN(C)CC1CCCCC1 | -0.4 | -0.4
O=C(c1cccs1)N1CCN(c2ncccn2)CC1 | 1.1 | -2.3
Cc1ccc(S(=O)(=O)Nc2ccc3c(c2)C(=O)N([C@H](C)CO)C[C@@H](C)[C@H](CN(C)Cc2ccncc2)O3)cc1 | -0.1 | 2.0
COc1ccc(/C=C/C(=O)Nc2ccc3nc4n(c(=O)c3c2)CCCC4)cc1 | 0.1 | 5.5
O=C(c1ccc(CS(=O)(=O)Cc2ccc(Cl)cc2)o1)N1CCCC1 | 1.0 | -0.8
C[C@@H]1CN([C@H](C)CO)C(=O)c2cccc(NS(=O)(=O)c3cccs3)c2O[C@H]1CN(C)S(=O)(=O)c1ccc(F)cc1 | x | 4.0
COc1cc2c(c(OC)c1)C(c1ccccc1OC)CC(=O)N2 (stereo unspecified) | x | 0.5
CCC(C)Sc1n[nH]c(=S)s1 (stereo unspecified) | -1.3 | 3.8
C[C@@H]1CN([C@H](C)CO)C(=O)c2cccc(N(C)C)c2O[C@@H]1CN(C)C(=O)Nc1ccccc1 | x | -1.4
COc1ccc(NC(=O)N(C)C[C@@H]2Oc3ccc(NC(=O)Cc4ccccc4)cc3C(=O)N([C@@H](C)CO)C[C@@H]2C)cc1 | 0.3 | 0.6
C[C@H]1CN([C@@H](C)CO)C(=O)c2cc(NC(=O)CCCN(C)C)ccc2O[C@@H]1CN(C)S(=O)(=O)c1ccc(F)cc1 | 0.0 | -0.1
COc1ccc(S(=O)(=O)N(C)C[C@@H]2Oc3ccc(NC(=O)C4CC4)cc3C(=O)N([C@H](C)CO)C[C@@H]2C)cc1 | -0.4 | 3.0
COc1ccc(NC(=O)Nc2ccc3c(c2)C(=O)N([C@@H](C)CO)C[C@@H](C)[C@H](CN(C)Cc2ccc(Cl)c(Cl)c2)O3)cc1 | -1.2 | -0.5
CC(C)(C)c1nc2scc(-c3ccccc3)c2c(=O)o1 | 0.5 | 0.0
COc1cc2c(cc1OC)CN(S(=O)(=O)c1ccc3c(c1)CCC(C)(C)O3)CC2 | 0.3 | 4.6
Fc1cccc(CSc2nc3ccccc3c3nc4ccccc4n23)c1 | 0.9 | 2.5
C[C@H](CO)N1C[C@H](C)[C@H](CN(C)CC2CC2)Oc2ccc(NS(=O)(=O)c3ccc(F)cc3)cc2C1=O | 0.8 | 4.2
Clc1ccc(Nc2ccc(-c3ccccc3)nn2)cc1 | -2.6 | -3.7
COc1ccc(S(=O)(=O)N(C)C[C@@H]2Oc3c(NC(=O)c4nc5ccccc5s4)cccc3C(=O)N([C@@H](C)CO)C[C@@H]2C)cc1 | x | -3.1
S=C(NCc1ccco1)Nc1ccc2nc(-c3ccccn3)c(-c3ccccn3)nc2c1 | -0.2 | 0.7
C[C@@H]1CN([C@@H](C)CO)C(=O)c2cc(NC(=O)C3CC3)ccc2O[C@H]1CN(C)S(=O)(=O)c1cccs1 | -0.6 | 2.7
C[C@@H]1CN([C@@H](C)CO)C(=O)c2cc(NS(=O)(=O)c3ccccc3)ccc2O[C@@H]1CN(C)S(=O)(=O)c1ccc(Cl)cc1 | 0.8 | 3.2
Cc1ccc2nc(SCc3c(C)c(C)cc(C)c3C)[nH]c2c1 | -0.9 | 1.8
C[C@H]1CN([C@@H](C)CO)C(=O)c2cccc(NS(=O)(=O)c3cn(C)cn3)c2O[C@@H]1CN(C)CC1CCCCC1 | x | -3.1
COc1ccc(NC(=O)Nc2cccc3c2O[C@H](CN(C)C(=O)Nc2c(C)noc2C)[C@@H](C)CN([C@@H](C)CO)C3=O)cc1 | x | -3.8
Cc1cccc(-c2nc(C)c(CCNC(=O)c3c(F)cccc3F)s2)c1 | -2.7 | 1.3

One compound at a time (already shown). Values in the order: A1 inhib | BJeLR viability
C[C@H](CO)N1C[C@H](C)[C@H](CN(C)CC2CC2)Oc2ccc(NS(=O)(=O)c3ccc(F)cc3)cc2C1=O is entered as 0.8 | 4.2
COc1cc2c(cc1OC)CN(S(=O)(=O)c1ccc3c(c1)CCC(C)(C)O3)CC2 is entered as 0.3 | 4.6
C[C@@H]1CN([C@@H](C)CO)C(=O)c2cc(NS(=O)(=O)c3ccccc3)ccc2O[C@@H]1CN(C)S(=O)(=O)c1ccc(Cl)cc1 is entered as 0.8 | 3.2
Cc1ccc2nc(SCc3c(C)c(C)cc(C)c3C)[nH]c2c1 is entered as -0.9 | 1.8
Cc1cccc(-c2nc(C)c(CCNC(=O)c3c(F)cccc3F)s2)c1 is entered as -2.7 | 1.3

Fetched by structure from the list above:
SMILES | A1 inhib | BJeLR viability
COc1ccc(S(=O)(=O)N(C)C[C@@H]2Oc3c(NC(=O)c4nc5ccccc5s4)cccc3C(=O)N([C@@H](C)CO)C[C@@H]2C)cc1 | x | -3.1
Cc1ccc2nc(SCc3c(C)c(C)cc(C)c3C)[nH]c2c1 | -0.9 | 1.8

Later entries
SMILES | A1 inhib | BJeLR viability
COc1ccc2c(c1)c(C(=O)O)c(C)n2-c1ccc(Cl)cc1 | 0.8 | 1.0
CC(C)C[C@@H](/C=C/S(C)(=O)=O)NC(=O)[C@H](CC(C)C)NC(=O)[C@H](CC(C)C)NC(=O)OCc1ccccc1 | -2.2 | 116.3*
CNC[C@@H]1Oc2c(NS(=O)(=O)c3ccc(Cl)cc3)cccc2C(=O)N([C@H](C)CO)C[C@@H]1C | x | -0.1
C[C@@H]1CN([C@@H](C)CO)C(=O)c2cccc(NC(=O)Nc3ccc(F)cc3)c2O[C@H]1CN(C)Cc1ccc2c(c1)OCO2 | x | 3.2
CC(Oc1ccc2ccccc2c1)C(=O)NN (stereo unspecified) | -0.4 | 1.1
C[C@@H]1CN([C@H](C)CO)C(=O)c2cc(NS(=O)(=O)c3ccccc3)ccc2O[C@H]1CN(C)C(=O)Nc1cccc2ccccc12 | -0.2 | -1.0
CN1CCC(=C2c3ccccc3Sc3ccccc32)CC1 | -0.7 | 3.0
COc1cccc(CNC(=O)CCS(=O)(=O)Cc2ccc(C)cc2)c1 | -0.2 | -4.3
CC(C)NC(=O)Nc1cccc2c1O[C@H](CN(C)S(=O)(=O)c1cccs1)[C@@H](C)CN([C@@H](C)CO)C2=O | x | -2.3
O=C(CSc1nnc(-c2ccc(C(F)(F)F)cn2)o1)Nc1cccc(Cl)c1 | -0.2 | -1.0
Cc1ccc(S(=O)(=O)Nc2ccc3c(c2)C(=O)N([C@H](C)CO)C[C@@H](C)[C@@H](CN(C)Cc2ccc(C(F)(F)F)cc2)O3)cc1 | 0.1 | 1.5
CCOC(=O)C1=C[C@]2(CC)CCCN3CCc4c(n1c1ccccc41)[C@@H]32 | 0.4 | -5.7
C[C@@H]1CN([C@H](C)CO)C(=O)c2cccc(NC(=O)Nc3cccc4ccccc34)c2O[C@@H]1CN(C)S(C)(=O)=O | x | -6.6
COC(=O)Cn1ncc2c3ccccc3n(Cc3cccc(Cl)c3)c2c1=O | -0.3 | 4.1
Cc1nc(NCCN2CCOCC2)c2sc3nc4c(cc3c2n1)COC(C)(C)C4 | -1.0 | -0.6
